Screening data from PubChem.
Vaccinia mCherry: qHTS for Stage-Specific Inhibitors of Vaccinia Orthopoxvirus: mCherry Reporter Primary qHTS. Vaccinia virus mCherry reporter infection, fluorescence; about a quarter of the inactives have no number. Potency, µM (highest dose often 36.5 µM), for inactives: top-dose activity change, negative = inhibition, usual class: inhibitors. 310,000 tested, 0.63% active. AID 720579, 2013; active = well fitted inhibition curve with a large enough effect; inconclusive = small, poorly fitted or top-dose-only effect; inactive = no such curve, though single readings can be large or run the other way; tested in A549 cells; also: nearly all actives have a fitted effect of over 35% in size; inactives centre near -10
Vaccinia Venus: qHTS for Stage-Specific Inhibitors of Vaccinia Orthopoxvirus: Venus Reporter Primary qHTS; 330,000 tested, 0.46% active; Potency, µM (top dose mostly 36.5 µM), for the others: at the top dose activity change, negative = inhibition, actives largely listed as inhibitors; Vaccinia virus Venus reporter expression, fluorescence; AID 720580, 2013; active means well fitted inhibition curve with a large enough effect; inconclusive means small, poorly fitted or top-dose-only effect; inactive means no such curve, though single readings can be large or run the other way; tested in A549 cells; also: nearly all actives have a fitted effect of over 30% in size; inactives centre near -10
* marks the source's active call; other numbers are inactive results; i = inactive; ? = inconclusive; nt = no result given; & = joins results of further samples; [ ] = another dose, or the depositor's remark. % is scaled to controls: 0 for no effect and ±100 for the full control effect; potency is read from the fitted curve at half-maximal effect.

Values run as follows: Vaccinia mCherry | Vaccinia Venus
- COc1ccc(-c2cc(=O)oc3c4c(ccc23)OCN(Cc2ccccc2)C4)cc1
 : -19% | -12%
- CCOC(=O)c1cccc(NS(=O)(=O)c2ccc3[nH]c4c(c3c2)CCCC4)c1
 : -20% | -14%
- CCCS(=O)(=O)N1CCC(C(=O)NC2CCCCC2C)CC1 (stereo not given)
 : nt | -22%
- COc1cccc(-n2cnc3scc(-c4cccs4)c3c2=O)c1
 : nt | ?
- COc1cccc(CNC(=O)c2cccnc2Sc2ccc(C)cc2C)c1
 : -28% | -15%
- CCN(CC)C(=O)c1sc(NC(=O)c2c(OC)cccc2OC)c(C#N)c1C
 : -6% | -12%
- CCc1nnc(NC(=O)CSc2nnc(-c3ccco3)n2CC)s1
 : -10% | -4%
- C=C(C)CNC(=S)N/N=C1\CCCCc2ccccc21
 : -12% | -8%
- Nc1nc(=S)[nH]c2c1C1(CCCCC1)Cc1ccccc1-2
 : i | -14%
- CCC(CC)C(=O)Nc1ccc2nc(SCC(=O)N3CCc4ccccc43)sc2c1
 : i | -6%
- CCCCC(=O)NC(c1ccc(OC)c(OC)c1)c1ccc2cccnc2c1O (stereo not given)
 : ? | ?
- CCCCCC(=O)NC(=S)NNC(=O)c1ccc([N+](=O)[O-])cc1
 : i | -10%
- COc1cccc(C(=O)NNC(=O)CCN2CCN(c3ccccc3)CC2)c1
 : -18% | -10%
- CN1CCN(CCC(=O)Nc2cccc(F)c2)CC1
 : i | -7%
- CCCC(C)C(=O)Nc1ccc(F)c(Cl)c1 (stereo not given)
 : -14% | -7%
- O=C(C(Cl)Cl)N1CCN(Cc2ccccc2)CC1
 : ? | ?
- CSc1ccc(C2c3c(oc4ccccc4c3=O)C(=O)N2CCCN2CCOCC2)cc1 (stereo not given)
 : -1% | -1%
- CCOC(=O)C1=C(C)NC(=O)NC1c1ccsc1 (stereo not given)
 : 0%[1.46 µM] | -22%
- COCCNC(=O)CCCn1c(SCC(=O)Nc2cccc(C)c2)nc2c(sc3ccccc32)c1=O
 : -5% | -4%
- Cc1cc(-c2n[nH]c(=S)n2CC(C)C)cs1
 : -13% | -15%
- COc1ccc(NC(=O)CCCn2c(=O)c3sccc3n(Cc3ccc(C)cc3)c2=O)cc1
 : i | -16%
- CNS(=O)(=O)c1ccc2nc(NC(=O)/C=C/c3ccco3)sc2c1
 : 6.3µM* | ?
- CCc1noc(C)c1C(=O)N1CCC(CCC(=O)Nc2cccc(C)c2)CC1
 : i | -19%
- CCc1ccnc(NS(=O)(=O)c2ccc3c(c2)OCCO3)c1
 : -9% | -8%
- Cc1ccc(C(=O)Nc2ccc(N3CCN(C)CC3)cc2)cc1
 : -18% | -10%
- C/C(=N\NC(=O)c1ccccc1C)c1ccc(NC(=O)c2cccs2)cc1
 : -15% | -13%
- CCOC(=O)[C@]12CCCC=C1N(Cc1ccccc1)C(=O)[C@H](CC(=O)N1CCOCC1)C2
 : -7% | -1%
- CC(C)(CO)NCC(=O)Nc1cc(C(F)(F)F)cc(NC(=O)CNC(C)(C)CO)c1Cl
 : -8% | 1%
- CCN(CC)S(=O)(=O)c1ccc(Cl)c(C(=O)OCC(=O)c2c(N)n(C)c(=O)n(C)c2=O)c1
 : ? | -23%
- CCN(C(=O)/C=C/c1ccc(OC)cc1)C1CCCCC1
 : -1% | -17%
- COc1ccc(/C=C(\C#N)c2nc(-c3cc4ccccc4oc3=O)cs2)cc1OC
 : -7% | 2%
- Cc1sc2nc3n(c(=O)c2c1C)CCCS3
 : nt | -26%
- CC(C)CCNC(=O)[C@@H](Cc1ccccc1)NC(=O)CC[C@H]1O[C@@H](n2ccc(=O)[nH]c2=O)[C@H](O)[C@@H]1O
 : 17% | -11%
- Cc1ccc(S(=O)(=O)N2CCC(C(=O)N[C@H](C(=O)NC3CCS(=O)(=O)C3)C(C)C)CC2)cc1 (stereo not given in full)
 : nt | -8%
- CC1(C(=O)NS(=O)(=O)c2ccc(C#N)cc2)CCN1C(=O)C1(c2ccccc2)CCCC1 (stereo not given)
 : i | -7%
- CCOc1cccc(CNc2ccc(O)cc2)c1OCc1ccccc1Cl
 : -20%&-8% | -21%&2%
- COc1ccc(-c2cc3ccc(O)c(CN4CCN(CCO)CC4)c3oc2=O)cc1OC
 : -9% | -10%
- Cc1ccc(NC(=O)CN2CCN(S(=O)(=O)c3ccc(F)cc3)CC2)cc1C
 : -4% | -28%
- CCn1ccc2cc(S(=O)(=O)N3CCCN(C(=O)Nc4cccc(Cl)c4)CC3)ccc21
 : -14% | -13%
- Cc1ccc2nc(-c3ccc4c(c3)NC(=O)CO4)cn2c1
 : i | -8%
- CCOC(=O)CNC(=O)CSc1ccc2nnc(-c3cccnc3)n2n1
 : -4% | -10%
- CC1=C(C(=O)OC(C)C)C(c2ccccn2)n2ncnc2N1 (stereo not given)
 : i | 5%
- COc1ccc(CCN(C)C(=O)CCc2nnc(-c3ccccc3)o2)cc1OC
 : i | -9%
- CC(C)C[C@H]1CN([C@@H](CC(C)C)CN2CCC[C@@H]2CN2C(=S)NC[C@@H]2Cc2ccc(O)cc2)C(=S)N1CC1CCCCC1
 : -11% | -27%
- Cc1cccc(Cn2cccc2CNS(=O)(=O)c2ccc(Br)cc2)c1
 : -28% | -11%
- Cc1ccc(NC(=O)CN2C(=O)S/C(=C/c3ccc(-c4cccc(C(=O)O)c4)o3)C2=O)cc1
 : -1% | 4%
- CCCC(=O)NC(Nc1ccccc1OC)C(Cl)(Cl)Cl (stereo not given)
 : -10% | -11%
- CCCCC[C@H](C)N1C[C@@H](COCc2ccccc2)Oc2cc(N3CC[C@H](N(C)C)C3)ccc2S1(=O)=O
 : 6% | 1%
- COc1ccc(OC)c(NC(=O)CS(=O)(=O)Cc2ccccc2)c1
 : i | 1%
- CCOC(=O)C1(C)CCN1C(=O)c1csnn1 (stereo not given)
 : i | 5%

Other compounds follow:
Values run as follows: Vaccinia mCherry | Vaccinia Venus
- CCOc1ccccc1NC(=O)c1cccc2ccccc12
 : ? | -25%
- Cc1oc2cc(OC(=O)c3ccco3)ccc2c(=O)c1-c1nc2ccccc2n1C
 : -18% | -8%
- Cc1oc(-c2ccccc2NC(=O)c2ccsc2)nc1CN(C)CC1CC=CCC1 (stereo not given)
 : -8% | 8%
- C[C@H]1CN([C@@H](C)CO)C(=O)CCCn2nncc2CO[C@H]1CN(C)S(=O)(=O)c1ccc2c(c1)OCCCO2
 : -18% | -15%
- O=C(CC(c1ccco1)C1CCCCC1=O)c1ccccc1 (stereo not given)
 : -21% | ?
- CCCN1CCN(C(=O)c2c(Cl)cnn2C)CC1
 : -16% | -13%
- CCc1c(C)sc(NC(=O)c2cc3nc(-c4ccc(OC)cc4)cc(C(F)(F)F)n3n2)c1C(=O)OC
 : -8% | 3%
- COC(=O)c1ccc(NC(=S)NNC(=O)c2ccccc2)cc1
 : -10% | -10%
- O=[N+]([O-])c1ccccc1/C=C/C=N/Nc1nc(N2CCCCC2)nc(N2CCCCC2)n1
 : -9% | -2%
- Cc1cc(C)cc(NC(=O)c2ccc(N3C(=O)C4CCCCC4C3=O)cc2)c1 (stereo not given)
 : i | -17%
- CCC1Nc2ncnc(N3CCCCC3)c2N(Cc2ccc(C)cc2)C1=O (stereo not given)
 : -7%&21% | -20%&10%
- C=CCOC(=O)C1=C[C@@H](c2coc3ccccc3c2=O)C[C@@H](OCCCCO)O1
 : -2% | -9%
- COc1ccc(CN2CCOc3ccc(CN4CCC(O)CC4)cc3C2)c(OC)c1OC
 : i | 0%
- O=C(CNC(=O)c1ccco1)OCC(=O)c1cccc2ccccc12
 : nt | -9%
- Cc1ccc(N2C(=O)CSC2c2ccc3c(c2)OCO3)cc1 (stereo not given)
 : -9% | -4%
- Cc1ccc(C(=O)NC2CCC(C)CC2)o1 (stereo not given)
 : i | -17%
- CCOC(=O)c1cc(-c2ccccc2)sc1NC(=S)Nc1cccc(C)n1
 : -13% | 4%
- C[C@]1(O)CCC2C3CC[C@H]4C[C@@H](OC(=O)CNC(=O)CN)CC[C@]4(C)C3CC[C@@]21C (stereo not given in full)
 : i | -15%
- Cc1ccc(S(=O)(=O)c2cn(CC(=O)Nc3ccc4c(c3)OCO4)c3ccc(C)cc3c2=O)cc1
 : -10% | 4%
- COc1ccc(C2=NOC(Cn3nc(C(=O)O)cc3-c3ccccc3)C2)cc1 (stereo not given)
 : i | 0%
- Cn1c(=O)oc2cc(S(=O)(=O)NCCC(=O)NCc3ccc(F)cc3)ccc21
 : -18%&-6% | -14%&-6%
- CS(=O)(=O)N(CC(=O)N1CCc2ccccc2C1)c1cccc([N+](=O)[O-])c1
 : i | -8%
- Cc1cccc(C)c1NC1=NC(=S)N(c2ccc(N(C)C)cc2)C1(C)C
 : -9% | -9%
- O=C(O)Cc1ccc(NC(=O)c2cccc(NC(=O)c3ccco3)c2)cc1
 : -15% | -4%
- S=C(NCCc1c[nH]c2ccccc12)NC1CC1
 : -43% | -14%
- CC1(C)CCSC(/C=C/c2ccccc2)=N1
 : 11µM* | ?
- CCN(CC)S(=O)(=O)c1cnccc1N1CCN(c2cccc(Cl)c2)CC1
 : -28% | ?
- O=C(NCCO)C(=O)c1c(-c2ccccc2)cc2ccccn12
 : i | -8%
- Cc1ccc(-c2nc3ncccn3c2Nc2ccc3c(c2)OCCO3)o1
 : -11% | -1%
- Cc1ccc(-c2cn(-c3ccc(OC(F)F)cc3)c3[n+]2CCCCC3)cc1
 : -4% | -16%
- CC1CCCc2sc3ncn(N)c(=N)c3c21 (stereo not given)
 : 3% | 5%
- O=C(NCCNC(=O)c1ccccc1F)c1ccccn1
 : -14% | -7%
- CCOC(=O)Cc1csc(NC(=O)CSc2nnc(C(C)C)n2CC)n1
 : i | -14%
- CCCn1c(SCC(=O)Nc2ccccc2Oc2ccccc2)n[nH]c1=O
 : nt | -22%
- COc1cccc(-c2nc(CS(=O)(=O)CC(=O)NCCc3ccc(OC)cc3OC)c(C)o2)c1
 : -30%&-17% | -22%&-7%
- Cc1ccnc(SCC(=O)Nc2cccc(S(=O)(=O)N3CCOCC3)c2)n1
 : -13% | -5%
- Cc1ccc(NS(=O)(=O)c2ccc(OCC(=O)NCC3CCCO3)cc2)cc1 (stereo not given)
 : -7% | 2%
- OC(c1ccccn1)C1CCN(Cc2nc(C(c3ccccc3)c3ccccc3)no2)CC1 (stereo not given)
 : -3% | -20%
- COc1cc(C(=O)NNC(=O)CNC(=O)c2ccc(Br)o2)cc(OC)c1OC
 : -10% | -12%
- Cc1cnc(SCc2ccc(Cl)cc2Cl)[nH]c1=O
 : i | -16%

A different layout for some results above.
Cc1sc2nc3n(c(=O)c2c1C)CCCS3
  Vaccinia mCherry: nt | Vaccinia Venus: -26%
CC(C)CCNC(=O)[C@@H](Cc1ccccc1)NC(=O)CC[C@H]1O[C@@H](n2ccc(=O)[nH]c2=O)[C@H](O)[C@@H]1O
  Vaccinia mCherry: 17% | Vaccinia Venus: -11%
Cc1ccc(S(=O)(=O)N2CCC(C(=O)N[C@H](C(=O)NC3CCS(=O)(=O)C3)C(C)C)CC2)cc1 (stereo not given in full)
  Vaccinia mCherry: nt | Vaccinia Venus: -8%
CC1(C(=O)NS(=O)(=O)c2ccc(C#N)cc2)CCN1C(=O)C1(c2ccccc2)CCCC1 (stereo not given)
  Vaccinia mCherry: i | Vaccinia Venus: -7%

Following part
Values run as follows: Vaccinia mCherry | Vaccinia Venus
- CCc1ccc(-c2nc(CSCC(=O)NCc3ccc(C)cc3)c(C)o2)cc1
 : -10%[7.34 µM] | -11%[7.34 µM]
- Cc1cc(C)nc(NC(=O)Cc2cccs2)n1
 : nt | 3%
- COc1ccc([N+](=O)[O-])cc1N(CC(O)CN(CC(C)C)CC(C)C)S(=O)(=O)c1ccccc1 (stereo not given)
 : -10% | -8%
- COc1ccc(-c2cccc(-c3cc(=O)oc4ccc(C(C)(C)C)cc34)c2)cc1
 : -8% | -18%
- COc1nc(NC2CCCCC2)nc(NC(C)(C)C)n1
 : ? | ?
- CC(NCc1ccccc1Cl)C(O)c1ccccc1 (stereo not given)
 : -3% | -13%
- C=CCOC(=O)C1=C(C)NC(=S)NC1/C=C/c1ccccc1 (stereo not given)
 : ? | -14%
- Cc1cc(Cl)ccc1OC(C)C(=O)Nc1cnn(CCCC(=O)O)c1 (stereo not given)
 : -15% | -7%
- CC1CCCN(C(=O)COC(=O)CNS(=O)(=O)c2ccc3ccccc3c2)C1 (stereo not given)
 : -13% | -2%
- Cc1cc(C)cc(NC(=O)CSc2nc3ccccc3nc2N2CCCC2)c1
 : i | -6%

Profiles, quoted from the list. Screens in order: Vaccinia mCherry | Vaccinia Venus
Listed for `CCN(CC)S(=O)(=O)c1ccc(Cl)c(C(=O)OCC(=O)c2c(N)n(C)c(=O)n(C)c2=O)c1` = ? | -23%
Listed for `O=C(C(Cl)Cl)N1CCN(Cc2ccccc2)CC1` = ? | ?
Listed for `CCCCC[C@H](C)N1C[C@@H](COCc2ccccc2)Oc2cc(N3CC[C@H](N(C)C)C3)ccc2S1(=O)=O` = 6% | 1%
Listed for `Cc1ccc(NC(=O)CN2CCN(S(=O)(=O)c3ccc(F)cc3)CC2)cc1C` = -4% | -28%

More entries
Values run as follows: Vaccinia mCherry | Vaccinia Venus
- C=CCNc1nc(Cl)nc(NC2CCCCC2)n1
 : i | -16%
- Fc1ccc(-c2nc(-c3cccs3)[nH]c2-c2ccc(F)cc2)cc1
 : ? | ?
- N#C/C(=C(/O)COC(=O)c1cccnc1Cl)c1nc2ccccc2[nH]1
 : 4% | 1%
- O=C(Cn1cc(C(=O)C2CC2)c2ccccc21)NCc1ccccc1
 : nt | -7%
